Screening results as filed in PubChem.
PINK1 modulator = PINK1 expression modulation; AID 624263; Potency, µM (top dose mostly 76.6 µM), for the others: top-dose activation (PINK1 increase), most hits filed as activators; actives 0.2% (n = 410,000); PINK1 immunofluorescence, high-content cytometry, 24 h; active = well fitted activation curve with a large enough effect; inconclusive = small, poorly fitted or top-dose-only effect; inactive = flat fitted curve, though single readings scatter; cell line not stated here;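 further: % of control where 0% means no effect; nearly all actives have a fitted effect of over 65% in size; a mitochondrial uncoupler was the plate control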
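Decision-based qHTS: stable cells, 24 h exposure to five compound concentrations, CCCP as control. Fixed cells stained for PINK1 plus nuclear, mitochondrial and cell markers, cytometer read.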
* = called active by the depositor. Potency means the concentration at half of the fitted maximal effect. An excerpt; rates above refer to the full screens.

Cc1ccc(NC(=O)Cn2nc(C(F)(F)F)c3c2CCCC3)cc1 was read as PINK1 modulator 4.8%.
Screening COc1ccc(Nc2ncc(C(=O)N3CCN(c4ccc(OC)cc4)CC3)c3ccccc23)cc1 returned PINK1 modulator 0.1%.
For O=C(CSc1nc2ccccc2c2nc(-c3ccccc3)nn12)Nc1ccc(F)cc1 the results were PINK1 modulator -1.0%.
Screening CCOC(=O)C1CCCN(C(=O)c2cnn(-c3nccc(-c4cc(C)sc4C)n3)c2C)C1 (stereo unspecified) returned PINK1 modulator 0.4%.
`COc1cccc(C(=O)COC(=O)c2cc(-c3cccs3)nc3ccccc23)c1` gave PINK1 modulator -0.3%.
Screening O=C(NC1CC(=O)N(c2ccc(Cl)cc2)C1)C(=O)c1c[nH]c2ccccc12 (stereo unspecified) returned PINK1 modulator 0.3%.
CN(C(=O)CSc1nc2ccc(NC(=O)COc3ccccc3)cc2s1)c1ccccc1 was read as PINK1 modulator 0.7%.
Screening Cc1c(C(=O)Nc2ccc(F)cc2)oc2ccc(S(=O)(=O)N3CCCCCC3)cc12 returned PINK1 modulator 2.6%.
`CC(C)(C)C1CCc2c(sc(NC(=O)CCC(=O)O)c2C(=O)Nc2ccccc2C(F)(F)F)C1` (stereo unspecified) gave PINK1 modulator -0.1%.
For COCCN(Cc1ccco1)C(=O)c1cc2c(Cl)nc3ccc(C)cc3c2s1 the results were PINK1 modulator -1.0%.
`O=C(Cn1ncc2c3ccccc3n(Cc3ccccc3)c2c1=O)NCc1cccs1` gave PINK1 modulator 6.4%.
Screening CCc1ccc(OCCCn2c(CCCNC(=O)C3CCCCC3)nc3ccccc32)cc1 returned PINK1 modulator 0.5%.
Cc1ccc(C)c(NC(=O)CSc2nnc3[nH]c(=O)cc(-c4ccccc4)n23)c1 was read as PINK1 modulator 30%.
For COc1ccc(CCNC(=O)C(=O)Nc2ccc(C)c(C)c2)cc1 the results were PINK1 modulator 4.0%.
`CCC(=O)Nc1ccc(CC)cc1-c1nc2ccccc2n(CC(=O)Nc2cccc(OC)c2)c1=O` gave PINK1 modulator 3.0%.
Screening Cc1cccc(NC(=O)C(=O)NCC(c2cccnc2)N2CCOCC2)c1 (stereo unspecified) returned PINK1 modulator 1.3%.
For COc1ccc(C)cc1NC(=O)CN1C(=O)CCc2cc(S(=O)(=O)N3CCOCC3)ccc21 the results were PINK1 modulator -0.4%.
For O=C(NCC1CCN(Cc2cccc(F)c2)CC1)c1cc2ccc3cccnc3c2[nH]1 the results were PINK1 modulator -0.1%.
Screening O/N=C(/C[n+]1cccc(Br)c1)c1ccc2ccccc2c1 returned PINK1 modulator 0.0%.
Screening Clc1ccccc1Cn1c(-c2cccs2)nc2ccccc21 returned PINK1 modulator -1.9%.

Twelve consecutive records out of the list so far:
`CC(C)(C)C1CCc2c(sc(NC(=O)CCC(=O)O)c2C(=O)Nc2ccccc2C(F)(F)F)C1` (stereo unspecified) gave PINK1 modulator -0.1%.
For COCCN(Cc1ccco1)C(=O)c1cc2c(Cl)nc3ccc(C)cc3c2s1 the results were PINK1 modulator -1.0%.
`O=C(Cn1ncc2c3ccccc3n(Cc3ccccc3)c2c1=O)NCc1cccs1` gave PINK1 modulator 6.4%.
Screening CCc1ccc(OCCCn2c(CCCNC(=O)C3CCCCC3)nc3ccccc32)cc1 returned PINK1 modulator 0.5%.
Cc1ccc(C)c(NC(=O)CSc2nnc3[nH]c(=O)cc(-c4ccccc4)n23)c1 was read as PINK1 modulator 30%.
For COc1ccc(CCNC(=O)C(=O)Nc2ccc(C)c(C)c2)cc1 the results were PINK1 modulator 4.0%.
`CCC(=O)Nc1ccc(CC)cc1-c1nc2ccccc2n(CC(=O)Nc2cccc(OC)c2)c1=O` gave PINK1 modulator 3.0%.
Screening Cc1cccc(NC(=O)C(=O)NCC(c2cccnc2)N2CCOCC2)c1 (stereo unspecified) returned PINK1 modulator 1.3%.
For COc1ccc(C)cc1NC(=O)CN1C(=O)CCc2cc(S(=O)(=O)N3CCOCC3)ccc21 the results were PINK1 modulator -0.4%.
For O=C(NCC1CCN(Cc2cccc(F)c2)CC1)c1cc2ccc3cccnc3c2[nH]1 the results were PINK1 modulator -0.1%.
Screening O/N=C(/C[n+]1cccc(Br)c1)c1ccc2ccccc2c1 returned PINK1 modulator 0.0%.
Screening Clc1ccccc1Cn1c(-c2cccs2)nc2ccccc21 returned PINK1 modulator -1.9%.

Looked up by structure from the list above, two records:
`CCC(=O)Nc1ccc(CC)cc1-c1nc2ccccc2n(CC(=O)Nc2cccc(OC)c2)c1=O` gave PINK1 modulator 3.0%.
Screening Clc1ccccc1Cn1c(-c2cccs2)nc2ccccc21 returned PINK1 modulator -1.9%.

Further results:
For CCc1ccc(S(=O)(=O)NCc2nc3cccnc3n2Cc2cccc(OC)c2)cc1 the results were PINK1 modulator -0.7%.
`CCn1c(SCCOc2ccccc2F)nc2ccccc21` gave PINK1 modulator 2.1%.
Screening Cc1ccc(NC(=O)C(=O)NCCCN2CCOCC2)cc1C returned PINK1 modulator -4.7%.
`COc1ccc2c(c1)c(N1CCCC1=O)c(C(=O)Nc1ccccc1C(F)(F)F)n2C` gave PINK1 modulator 0.0%.
`O=C(NCc1ccccc1F)C(=O)NCC(c1cccs1)S(=O)(=O)c1cccs1` (stereo unspecified) gave PINK1 modulator 0.3%.
Screening CCc1ccc(S(=O)(=O)c2nnn3c2nc(Nc2ccc(F)cc2)c2cc(Cl)ccc23)cc1 returned PINK1 modulator -0.8%.
Cc1ccc(-n2c(=O)c3c(cnn3C)n(CC(=O)Nc3ccc(C)cc3C)c2=O)cc1 was read as PINK1 modulator 0.3%.
Screening Cc1ccccc1Cn1c(=O)n(Cc2ccc3c(c2)OCO3)c(=O)c2oc3ccccc3c21 returned PINK1 modulator -1.3%.
Screening COc1ccc(CCCc2nnc(SCC(=O)Nc3cccc(C)c3)o2)cc1C returned PINK1 modulator 12%.
Screening CC(C)OC(=O)c1c(NC(=O)COc2cccc(Br)c2)sc2c1CCCC2 returned PINK1 modulator 1.1%.
Screening O=C(NCCC1=CCCCC1)c1ccc2c(c1)N(Cc1ccc(F)cc1)C(=O)c1ccccc1S2(=O)=O returned PINK1 modulator 0.0%.
Screening COc1ccccc1N1CCN(C(CNC(=O)C(=O)NCc2cccnc2)c2cccnc2)CC1 (stereo unspecified) returned PINK1 modulator 0.3%.
For CN1CCN(C(c2ccccc2Cl)c2sc3nc(-c4ccco4)nn3c2O)CC1 (stereo unspecified) the results were PINK1 modulator 0.5%.
Screening CCN(Cc1ccccc1)C(=O)Cn1c(=O)n(-c2ccc(Cl)c(Cl)c2)c(=O)c2c(C)c(C(=O)N(C)C)sc21 returned PINK1 modulator 1.7%.
`CC(C)C(=O)Nc1ccccc1C(=O)OCc1cc(=O)n2nc(C3CC3)sc2n1` gave PINK1 modulator 5.1%.
`COc1ccc(CNC(=O)C2CCN(S(=O)(=O)c3cn(C)cn3)CC2)cc1` gave PINK1 modulator 1.1%.
Screening Cc1ccc(C2=NN(CC(=O)NCCCN(CC(C)C)CC(C)C)C(=O)CC2)cc1 returned PINK1 modulator -0.6%.
`CCOC(=O)c1cnn(-c2ccc(C(=O)Nc3ccc(C(C)=O)cc3)cc2)c1N` gave PINK1 modulator 0.6%.
COc1ccccc1CNCCSc1nnnn1C was read as PINK1 modulator 0.0%.
For COc1ccc(-c2nc(C)c(CCNC(=O)C(=O)Nc3ccccc3C#N)s2)cc1OC the results were PINK1 modulator 2.0%.
`Cc1cccc(C)c1NC(=O)c1oc2ccc3c(c2c1C)C(=O)CC(C)(C)O3` gave PINK1 modulator 2.9%.
COc1ccc(-c2cc(C(=O)NCc3ccccc3)c3c(-c4ccccc4)[nH]nc3n2)cc1 was read as PINK1 modulator 0.8%.
For Cc1cc(C)cc(NC(=O)Nc2nnc(N(C)C3CCCCC3)s2)c1 the results were PINK1 modulator 1.3%.
Cc1cccc(N(C)C(=O)Cn2cnc3nc4c(cc3c2=O)CCCC4)c1 was read as PINK1 modulator 1.4%.
Screening Cc1cc(C)cc(NC(=O)N2CCN(C)c3ncccc32)c1 returned PINK1 modulator 3.8%.
CCOC(=O)c1c(NC(=O)c2ccc(S(=O)(=O)N3CCC(C)CC3)cc2)sc2c1CCN(C)C2 was read as PINK1 modulator 21%.
`O=C(NCC(c1cccnc1)N1CCN(Cc2ccccc2)CC1)C(=O)Nc1cccc(F)c1` (stereo unspecified) gave PINK1 modulator -1.3%.
COc1ccc(-c2nn(CC(=O)NCc3ccccc3)c3c2cnc2ccc(F)cc23)cc1 was read as PINK1 modulator 1.5%.
COc1ccc(Nc2cc(C(=O)NCCCN(C)C3CCCCC3)c3ccccc3n2)cc1 was read as PINK1 modulator 5.5%.
Screening CCOC(=O)c1c(NC(=O)c2cc(-c3ccc(OC)cc3)on2)sc(C)c1C returned PINK1 modulator 1.5%.
For COc1ccc(OC)c(NC(=O)c2cc3c(=O)n4cccc(C)c4nc3n2C)c1 the results were PINK1 modulator 0.1%.
`COC(=O)c1cc2c(cc1NC(=O)c1c(C)nn(-c3ccc(C)cc3)c1-n1cccc1)OCO2` gave PINK1 modulator 0.3%.
Screening O=C(CN1C(=O)COc2ccc(S(=O)(=O)N3CCOCC3)cc21)N1CCN(c2ccccc2F)CC1 returned PINK1 modulator -1.1%.
Screening COc1ccc(-n2ncc(C(=O)NCc3ccc4c(c3)OCO4)c2C2CCN(C(=O)OC(C)(C)C)CC2)cc1 returned PINK1 modulator -0.5%.
CCn1c(SCc2ccccc2F)nc(=O)c2c(C(=O)OC)cc(C3CC3)nc21 was read as PINK1 modulator -0.7%.
Screening CC(C)CC(C(=O)NCCc1ccccc1)N1Cc2ccccc2C1=O (stereo unspecified) returned PINK1 modulator 2.9%.
CCN(CC)CCn1c(-c2ccccc2)csc1=Nc1ccccc1 was read as PINK1 modulator 28µM*.
Cc1ccc(C)c(NC(=O)Cn2c(=O)oc3cc(S(=O)(=O)NCc4ccccc4)ccc32)c1 was read as PINK1 modulator 0.0%.
O=C(NCCN1CCCCC1)c1ccc(Cn2c(SCc3ccccc3)nc3cccnc32)cc1 was read as PINK1 modulator -0.3%.
For CCCn1c(=O)c2sccc2n2c(CCCC(=O)Nc3cccc(CC)c3)nnc12 the results were PINK1 modulator 2.2%.
`COC(=O)c1ccc(Nc2ncnc3c2cnn3-c2ccccc2)cc1` gave PINK1 modulator 1.8%.
Screening Cc1ccc(Cl)cc1N1CCN(c2nc3ccccc3c3nc(-c4cccnc4)nn23)CC1 returned PINK1 modulator -1.2%.
For COc1ccc(NC(=O)Nc2cc(-c3cn4cccnc4n3)ccc2C)cc1 the results were PINK1 modulator 2.9%.
CCOC(=O)CNC(=O)Nc1cc(C(=O)NCc2ccccc2OC)ccc1N1CCCC1 was read as PINK1 modulator -0.2%.
For CCN1C(=O)c2ccccc2Sc2ccc(NC(=O)COc3ccc(Cl)cc3)cc21 the results were PINK1 modulator 2.5%.
CCCC(=O)Oc1c(Sc2ccc(C)cc2)c(C)nn1-c1ccccc1 was read as PINK1 modulator 0.2%.
`Cc1c(NS(=O)(=O)c2ccccc2)cc(C(C)C)c(O)c1S(=O)(=O)c1ccc(Cl)cc1` gave PINK1 modulator 6.9%.
For Cc1ccccc1NC(=O)c1c(NC(=O)c2cccs2)sc2c1CCC(C)C2 (stereo unspecified) the results were PINK1 modulator -1.2%.
`Cc1ccc2oc(-c3ccc(Cl)cc3)c(O)c(=O)c2c1` gave PINK1 modulator 1.6%.
For CCC1CCCCN1S(=O)(=O)c1ccc2c(c1)CCCN2C(C)=O (stereo unspecified) the results were PINK1 modulator -1.3%.
`CSc1ccc(/C=C/c2ccnc3ccccc23)cc1` gave PINK1 modulator -0.1%.
`CCOc1ccc(-n2cc(-c3ccccc3)c3c(Nc4cccc(F)c4)ncnc32)cc1` gave PINK1 modulator 1.1%.
N=c1n(CCO)c2ccccc2n1Cc1ccccc1F was read as PINK1 modulator 1.1%.
Screening O=C(NCCc1cccnc1)c1cnn(-c2ncc3c(n2)-c2ccccc2CC3)c1C1CC1 returned PINK1 modulator 2.0%.
For O=[N+]([O-])c1ccc(C(c2sc3nc(-c4ccco4)nn3c2O)N2CCN(Cc3ccccc3)CC2)cc1 (stereo unspecified) the results were PINK1 modulator 0.9%.
Screening CCc1ccc(NC(=O)C(CC)n2c(=O)c(C(F)(F)F)nc3ccccc32)cc1 (stereo unspecified) returned PINK1 modulator inconclusive.
For CCOc1ccc(NC(=O)CSc2nnc3c(n2)[nH]c2ccc(S(=O)(=O)N(C)C)cc23)cc1 the results were PINK1 modulator -0.3%.
CCOc1ccc(CCNC(=O)Cn2nc(CC)n3c(cc4ccccc43)c2=O)cc1 was read as PINK1 modulator -0.6%.
Screening Cc1cc(C)c2c(CC(=O)Nc3ccc(S(=O)(=O)Nc4nc(C)cc(C)n4)cc3)coc2c1 returned PINK1 modulator -0.8%.
Screening COc1cccc(CNC(=O)CSc2nc3ccccc3nc2Cc2ccccc2)c1 returned PINK1 modulator 2.1%.
Screening COc1ccc(-c2onc(C)c2C)cc1S(=O)(=O)N1CCN(c2ccc(Cl)cc2)CC1 returned PINK1 modulator -0.3%.
`Cc1ccc(C)c(Nc2nnc(-c3ccc(C)c(S(=O)(=O)N4CCCCC4)c3)c3ccccc23)c1` gave PINK1 modulator -0.7%.
`CCc1ccc(NC(=O)CSc2nc(C)cc(COC)c2C#N)cc1` gave PINK1 modulator 4.0%.
Cc1onc(-c2ccc(Br)cc2)c1C(=O)Nc1ccc(Br)cc1F was read as PINK1 modulator 0.3%.
Screening Cc1ccc(-n2ncc(C(=O)NCc3cccs3)c2C2CCN(C(=O)OC(C)(C)C)CC2)cc1 returned PINK1 modulator -2.1%.
For Cc1cccc(C(c2sc3nc(-c4ccco4)nn3c2O)N2CCN(c3ccccc3F)CC2)c1 (stereo unspecified) the results were PINK1 modulator 2.5%.
Screening COc1ccc(CN2CCC3(CC2)c2ccccc2[C@@H](NC(=O)c2ccco2)[C@@H]3OC)c(O)c1 returned PINK1 modulator -0.7%.
For CSc1ccc(CCNC(=O)C(C)n2c(C)c3cnn(-c4ccccc4)c(=O)c3c2C)cc1 (stereo unspecified) the results were PINK1 modulator 1.0%.
`CCCCOc1ccc(CNC(=O)C2CCN(c3nnc(-n4cccc4CNc4ccc(C)cc4)s3)CC2)cc1` gave PINK1 modulator -0.1%.
